High-throughput results as filed in PubChem.
Rce1 inhib – yeast Rce1p protease inhibitors, primary screen, biochemical, fluorescence, cell-free homogeneous. CAAX prenyl protease 2 (Saccharomyces cerevisiae (strain ATCC 204508 / S288c)), Q03530. yeast membranes, quenched prenylated peptide cleavage fluorescence. calls only. 290,000 tested, 0.27% active;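 active = fall in fluorescence gain of 50% or more versus controls, with final raw signal at or below 3038400; inconclusive = same 50% fall but final raw signal above 3038400; inactive = fall in fluorescence gain under 50%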;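 note: plate controls were neutral control wells for no effect and wells lacking membranes for full effect; tested at 10 µM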
Yeast UUG start – modulators of yeast start codon fidelity, primary screen, whole organism, S. cerevisiae, single point, plate reader. 350,000 tested, 0.13% active. activity score, % at 18.7 µM. S. cerevisiae UUG-firefly luciferase reporter, luminescence/redox ratio. AID 602363, 2012;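 active = replicate mean at a twofold rise or more, about +100% in these data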;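 note: firefly luciferase made from a UUG start codon reports start codon fidelity; reporter light over untreated wells divided by growth signal over untreated wells; some hits fall short of that in this replicate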
eIF4H FP inh – human eIF4H binding inhibitors, primary screen, translation initiation inhibitor project, biochemical, uHTS, fluorescence polarization; eIF4H fluorescence polarization binding assay; Eukaryotic translation initiation factor 4H (Homo sapiens), Q15056; inhibition, % at 35 µM; 290,000 tested, 0.94% active; AID 2012, 2009;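 active = 50% or more with normal probe brightness, or confirmed in later tests; inconclusive = above 50% with abnormal brightness, or retests that disagree; inactive = below 50% or failed in later tests; about a fifth of its hits are not listed in these tables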;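 note: calls also rest on retests at 20 µM and on dose response follow-up; 0% = protein and probe with vehicle and 100% = probe without protein; strong numbers were not always called active; many hits fall short of the cut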
PABP FP inh – PABP poly(A) RNA binding inhibitors, primary screen, biochemical, fluorescence polarization, uHTS; Polyadenylate-binding protein 1 (Homo sapiens), P11940; 290,000 tested, 1% active; inhibition, % at 35 µM;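 active = 50% or more with normal probe brightness, or confirmed in later tests; inconclusive = above 50% with abnormal brightness, or retests that disagree; inactive = below 50% or failed in later tests; about a fifth of its hits are not listed in these tables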;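 note: calls also rest on retests at 20 µM and on dose response follow-up; controls were probe without protein and protein plus probe with vehicle; some compounds called inactive have numbers as strong as hits; many hits fall short of the cut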
Target sequence (P11940 whole entry, looked up): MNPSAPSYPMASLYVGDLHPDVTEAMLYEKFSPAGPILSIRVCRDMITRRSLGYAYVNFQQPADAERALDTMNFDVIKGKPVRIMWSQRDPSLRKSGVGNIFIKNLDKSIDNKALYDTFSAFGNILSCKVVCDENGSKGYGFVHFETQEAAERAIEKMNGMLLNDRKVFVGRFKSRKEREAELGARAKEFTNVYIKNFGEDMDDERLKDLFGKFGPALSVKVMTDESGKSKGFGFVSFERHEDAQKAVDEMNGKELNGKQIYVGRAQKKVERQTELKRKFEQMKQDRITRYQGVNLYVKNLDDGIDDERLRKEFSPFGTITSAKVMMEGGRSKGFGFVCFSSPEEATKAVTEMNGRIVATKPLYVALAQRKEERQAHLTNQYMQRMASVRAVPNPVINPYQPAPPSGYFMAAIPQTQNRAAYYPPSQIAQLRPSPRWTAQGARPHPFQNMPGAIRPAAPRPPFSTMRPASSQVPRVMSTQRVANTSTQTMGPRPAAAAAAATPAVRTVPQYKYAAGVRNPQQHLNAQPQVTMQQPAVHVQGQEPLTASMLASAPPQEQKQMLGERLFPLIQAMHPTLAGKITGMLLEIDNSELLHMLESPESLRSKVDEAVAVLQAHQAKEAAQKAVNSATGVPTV
Env fusion inh – inhibitors of HIV-1 Env-driven cell-cell fusion, primary screen, HeLa-JRFL effector, CEM21 target cells, luciferase; inhibition, % at 12.3 µM; 360,000 tested, 1.1% active; AID 651610, 2012;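 active = mean replicate inhibition score of at least 50 and every replicate individually at or above 50; inconclusive = only one of the two criteria met; inactive = mean below 50 and not all replicates reaching 50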;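 note: 0% = plate neutral controls and 100% = maraviroc near 300 nM; one replicate is shown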
MT1-MMP act inh – blockers of MT1-MMP proenzyme processing, primary screen, HT1080 RFP-PRO-GFP cells, GFP/RFP fluorescence. Matrix metalloproteinase-14 (Homo sapiens), P50281. GFP/RFP ratio fluorescence, overnight; percent of plate control window, DMSO zero. GFP/RFP ratio change, % at 20 µM. 360,000 tested, 0.061% active. AID 651647, 2012;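 active = GFP/RFP ratio change of at least 30% with cell ATP level not reduced by more than half and red fluorescence within 50% of control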; note: strong numbers were not always called active
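Material: RFP-PRO-GFP reporter HT1080 cells. Dosing: single-point 20 µM compound, 1% DMSO. Controls: DMSO and RFP-L50D-GFP cell wells. Timing: cells overnight before dosing, compound overnight, 37 °C, 5% CO2. Measure: GFP/RFP fluorescence ratio.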
CSC inhib – cancer stem cell viability inhibitors, primary screen, luminescence; cancer stem cell-like cells viability; inhibition, % at 7.5 µM; 300,000 tested, 1.1% active; AID 2717, 2010;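 active = mean at 75% or more and at least half the replicates too; inconclusive = mean and replicates disagree; tested in HMLE shEcad cells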;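 note: 0% = median of negative and 100% = median of positive control wells; the first replicate is given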
eIF4H FP inh retest – second read-out of eIF4H FP inh, no call of its own (marks repeat the call); inhibition, %; compound at 20 µM; confirmation average;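 mean of two retest wells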
PABP FP inh retest – also measured in PABP FP inh; calls as there; inhibition, %; compound at 20 µM; confirmation repeats;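 mean of two retest wells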
MT1-MMP act inh RFP – recorded beside MT1-MMP act inh, whose call it bears; RFP signal change, %; measured here: RFP expression control read;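 0 = vehicle wells; hits needed this value within 50% of zero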
* hit, by the source's call. An excerpt; the hit share may differ from the screen's.

How did CCn1cc(C(=O)OCC(=O)c2cc(C)n(-c3cccc(C(F)(F)F)c3)c2C)c(=O)c2ccc(C)nc21 do in these assays?
Rce1 inhib: inactive; Yeast UUG start: -19; eIF4H FP inh: -2; PABP FP inh: -12; MT1-MMP act inh: 6; CSC inhib: 13; MT1-MMP act inh RFP: -12

What do the screens show for `COc1cc(/C=C2\C(=N)N3N=C(S(C)(=O)=O)SC3=NC2=O)ccc1OC(=O)c1cccs1`?
Rce1 inhib: inactive; Yeast UUG start: -13; eIF4H FP inh: -2; PABP FP inh: 7; Env fusion inh: 6; MT1-MMP act inh: -58; CSC inhib: -15; MT1-MMP act inh RFP: 4

What do the screens show for `CCCc1nnc(SCC(=O)N2CCCCC2C)n1CCOC` (centres undefined)?
Rce1 inhib: inactive; eIF4H FP inh: 0; PABP FP inh: -7; Env fusion inh: -8; MT1-MMP act inh: -1; CSC inhib: -6; MT1-MMP act inh RFP: -2

Results for CC(=O)Nc1c(N)c2ccccc2oc1=O ?
Rce1 inhib: inactive; eIF4H FP inh: -4; PABP FP inh: 3; Env fusion inh: 5; MT1-MMP act inh: 0; CSC inhib: -11; MT1-MMP act inh RFP: 8

How did Cc1ccc2oc(=O)c3cnn(CC(=O)N(CCC(C)C)Cc4ccco4)c3c2c1 do in these assays?
Rce1 inhib: inactive; Yeast UUG start: 4; eIF4H FP inh: 1; PABP FP inh: 1; Env fusion inh: 44; MT1-MMP act inh: -2; CSC inhib: -10; MT1-MMP act inh RFP: 0

What do the screens show for `CC1CCC2(CC1)NC(=O)N(CC(=O)Nc1ccc3[nH]c(=O)[nH]c3c1)C2=O` (centres undefined)?
Rce1 inhib: inactive; Yeast UUG start: -5; Env fusion inh: 10; MT1-MMP act inh: -1; CSC inhib: -13; MT1-MMP act inh RFP: 2

How did O=C(NCc1cc([N+](=O)[O-])ccc1O)c1cccnc1Sc1ccccc1 do in these assays?
Rce1 inhib: inactive; Yeast UUG start: 3; eIF4H FP inh: -7; PABP FP inh: 5; Env fusion inh: 15; MT1-MMP act inh: -4; CSC inhib: -14; MT1-MMP act inh RFP: -1

What do the screens show for `O=C(Cc1csc(N2CCOCC2)n1)N/N=C/c1cccc(O)c1`?
Rce1 inhib: inactive; eIF4H FP inh: 1; PABP FP inh: -6; MT1-MMP act inh: 4; CSC inhib: 0; MT1-MMP act inh RFP: -1

Results for Nc1ncnc2c1ncn2C1OC(C(=O)NC2CC2)C(O)C1O (centres undefined) ?
Yeast UUG start: -23; Env fusion inh: -9; MT1-MMP act inh: -1; CSC inhib: -2; MT1-MMP act inh RFP: 2

What do the screens show for `Cc1nc2nc(Cc3ccccc3)[nH]n2c(=O)c1Cl`?
Rce1 inhib: inactive; Yeast UUG start: -10; eIF4H FP inh: 13; PABP FP inh: 13; MT1-MMP act inh: -1; CSC inhib: -7; MT1-MMP act inh RFP: 1

Results for COc1ccc(CNC(=O)CCn2ccc3cc(S(=O)(=O)N4CCCC4)ccc32)cc1 ?
Rce1 inhib: inactive; Yeast UUG start: -7; eIF4H FP inh: -10; PABP FP inh: 6; Env fusion inh: 10; MT1-MMP act inh: 0; CSC inhib: -4; MT1-MMP act inh RFP: -3

What do the screens show for `CC(C)C(C(=O)NCC1CCCO1)N(C(=O)CNS(=O)(=O)c1ccccc1)c1ccc(F)cc1` (centres undefined)?
Rce1 inhib: inactive; Yeast UUG start: -1; eIF4H FP inh: -8; PABP FP inh: 28; Env fusion inh: 11; MT1-MMP act inh: 2; CSC inhib: 10; MT1-MMP act inh RFP: 3

How did Cc1cccc(NC(=O)Nc2ccc(S(=O)(=O)Nc3onc(C)c3C)cc2)c1 do in these assays?
Yeast UUG start: -7; MT1-MMP act inh: 4; CSC inhib: -11; MT1-MMP act inh RFP: 7

What do the screens show for `CC(C)c1nc(SCC(=O)N2CCN(c3ccccc3)CC2)c2c(=O)n(C)c(=O)n(C)c2n1`?
Rce1 inhib: inactive; Yeast UUG start: -29; eIF4H FP inh: 6; PABP FP inh: -3; Env fusion inh: 44; MT1-MMP act inh: 0; MT1-MMP act inh RFP: -12

Results for Cc1ccc(C(=O)N/C(=C\c2ccc(-c3ccccc3[N+](=O)[O-])o2)C(=O)NCCN(C)C)cc1 ?
Rce1 inhib: inactive; Yeast UUG start: -12; eIF4H FP inh: inconclusive; PABP FP inh: inconclusive; Env fusion inh: -14; MT1-MMP act inh: -12; CSC inhib: 14; MT1-MMP act inh RFP: 3

Results for c1coc(CNCC2OCCc3ccccc32)c1 (centres undefined) ?
Rce1 inhib: inactive; Yeast UUG start: -12; eIF4H FP inh: -6; PABP FP inh: 4; Env fusion inh: 14; MT1-MMP act inh: -3; CSC inhib: 5; MT1-MMP act inh RFP: -1

What do the screens show for `CCCc1cc(Nc2ccccc2C)n2ncnc2n1`?
Rce1 inhib: inactive; Yeast UUG start: -16; eIF4H FP inh: 10; PABP FP inh: 9; Env fusion inh: 6; MT1-MMP act inh: 3; CSC inhib: -17; MT1-MMP act inh RFP: 3

What do the screens show for `COc1ccc(NC(C)=O)cc1NC(C)C(=O)Nc1ccc(F)c(F)c1F` (centres undefined)?
Rce1 inhib: inactive; eIF4H FP inh: -13; PABP FP inh: 1; MT1-MMP act inh: 4; CSC inhib: 0; MT1-MMP act inh RFP: 5

Results for Cn1c(Nc2ccccc2)nc2ccccc21 ?
Rce1 inhib: inactive; Yeast UUG start: -13; eIF4H FP inh: 0; PABP FP inh: -5; Env fusion inh: -14; MT1-MMP act inh: 5; CSC inhib: 4; MT1-MMP act inh RFP: 1

Results for COc1cccc2cc(-c3nc4ccccc4[nH]3)c(=O)oc12 ?
Rce1 inhib: inactive; Yeast UUG start: -23; eIF4H FP inh: 3; PABP FP inh: 8; Env fusion inh: -60; MT1-MMP act inh: -1; CSC inhib: -1; MT1-MMP act inh RFP: -4

Results for O=C1CCc2cc(NS(=O)(=O)c3ccccc3)cc3c2N1CC3 ?
Rce1 inhib: inactive; Env fusion inh: -1; MT1-MMP act inh: 5; CSC inhib: -5; MT1-MMP act inh RFP: 6

What do the screens show for `Cc1ccc(NC(=O)c2ccc3c(c2)S(=O)(=O)c2ccccc2C3=O)cc1S(=O)(=O)N1CCOCC1`?
Rce1 inhib: inactive; Yeast UUG start: -17; eIF4H FP inh: 1; PABP FP inh: -4; Env fusion inh: 4; MT1-MMP act inh: -1; CSC inhib: -14; MT1-MMP act inh RFP: -3

How did N#CC1=C(N)Oc2n[nH]c(-c3ccccc3)c2C1c1ccsc1 (centres undefined) do in these assays?
Rce1 inhib: inactive; eIF4H FP inh: -10; PABP FP inh: -4; MT1-MMP act inh: -1; CSC inhib: -13; MT1-MMP act inh RFP: 7

What do the screens show for `O=C(Nc1ccccc1)Nc1ccc2ccccc2n1`?
Rce1 inhib: inactive; Yeast UUG start: -12; eIF4H FP inh: -10; PABP FP inh: -6; Env fusion inh: -18; MT1-MMP act inh: 6; CSC inhib: 3; MT1-MMP act inh RFP: 1

What do the screens show for `CCC(=O)N(Cc1cc(=O)[nH]c2ccccc12)c1cccc(C)c1`?
Yeast UUG start: -2; eIF4H FP inh: -1; PABP FP inh: -1; MT1-MMP act inh: -2; CSC inhib: 5; MT1-MMP act inh RFP: -4

How did CCCSc1nc2c(cnn2-c2ccc(Cl)cc2)c(=O)[nH]1 do in these assays?
Rce1 inhib: inactive; Yeast UUG start: -34; eIF4H FP inh: -1; PABP FP inh: 0; MT1-MMP act inh: 4; CSC inhib: -2; MT1-MMP act inh RFP: 0

Results for COc1ccccc1C(=O)NC(=O)COC(=O)C1CC2CCCC(C1)C2=O (centres undefined) ?
Rce1 inhib: inactive; Yeast UUG start: 2; eIF4H FP inh: -2; PABP FP inh: 2; MT1-MMP act inh: -1; CSC inhib: 0; MT1-MMP act inh RFP: 3

Results for COc1ccc(CC(=O)N(Cc2ccccc2)c2cccc(C)c2)cc1OC ?
Rce1 inhib: inactive; Yeast UUG start: -6; eIF4H FP inh: 4; PABP FP inh: -5; Env fusion inh: -3; MT1-MMP act inh: -7; CSC inhib: -9; MT1-MMP act inh RFP: -3

Results for Clc1ccc(Nc2nc(-c3ccncc3)cs2)cc1 ?
Rce1 inhib: inactive; Yeast UUG start: -20; MT1-MMP act inh: -1; MT1-MMP act inh RFP: -10

How did COc1cccc(NC(=O)Cn2nnc(C(=O)NCc3cccs3)c2N)c1 do in these assays?
Rce1 inhib: inactive; Yeast UUG start: 2; eIF4H FP inh: -13; PABP FP inh: 2; Env fusion inh: 2; MT1-MMP act inh: 4; CSC inhib: -3; MT1-MMP act inh RFP: 3

Results for Cc1ccc([N+](=O)[O-])cc1N/C=C1\CCCCC1=O ?
Rce1 inhib: inactive; Yeast UUG start: -9; eIF4H FP inh: 0; PABP FP inh: 8; Env fusion inh: -59; MT1-MMP act inh: -2; CSC inhib: 4; MT1-MMP act inh RFP: -1

What do the screens show for `Nc1ccc(C(CC(=O)O)n2cccc2)cc1` (centres undefined)?
Rce1 inhib: inactive; Yeast UUG start: -3; eIF4H FP inh: 67*; PABP FP inh: 1.2*; Env fusion inh: 1; MT1-MMP act inh: 1; CSC inhib: 1; eIF4H FP inh retest: 102*; PABP FP inh retest: 97*; MT1-MMP act inh RFP: 6

How did CCn1c(=N)n(CC(=O)C23CC4CC(CC(C4)C2)C3)c2ccccc21 do in these assays?
Rce1 inhib: inactive; Yeast UUG start: -24; eIF4H FP inh: -9; PABP FP inh: 7; MT1-MMP act inh: 1; MT1-MMP act inh RFP: 3

What do the screens show for `Cc1cc(C)c(C)c(S(=O)(=O)NCCCN2CCCC2=O)c1C`?
Rce1 inhib: inactive; Yeast UUG start: -7; eIF4H FP inh: 6; PABP FP inh: 0; MT1-MMP act inh: -2; CSC inhib: -7; MT1-MMP act inh RFP: -1

What do the screens show for `O=C(COc1ccc2ccccc2c1)N/N=C/c1ccccn1`?
Rce1 inhib: inactive; Yeast UUG start: -27; eIF4H FP inh: -6; PABP FP inh: -3; Env fusion inh: -9; MT1-MMP act inh: 7; CSC inhib: 13; MT1-MMP act inh RFP: 6

How did COc1cc(NC(=O)CSc2nc3[nH]ncc3c(=O)n2-c2ccccc2C)cc(OC)c1OC do in these assays?
Rce1 inhib: inactive; eIF4H FP inh: 4; PABP FP inh: 22; Env fusion inh: 9; MT1-MMP act inh: 1; MT1-MMP act inh RFP: 1

Results for Cc1cc(C)nc(NC(=O)c2cc3ccccc3o2)n1 ?
Rce1 inhib: inactive; Yeast UUG start: -15; eIF4H FP inh: -5; PABP FP inh: 7; MT1-MMP act inh: 3; CSC inhib: 2; MT1-MMP act inh RFP: 0
